HCMV UL50-53 inh – inhibitors of HCMV UL50-UL53 nuclear egress complex interaction | inhibition, % (no concentration beside the values) | 190,000 compounds, 0.15% hits | HTRF UL50-UL53 interaction, normalized percent inhibition;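 active = both replicates at 50% or more, plus weaker picks with an unusually low signal ratio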;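 note: stock transfer was 100 nL into about 20 µL; 0% = negative control wells and 100% = wells with untagged competitor protein; inactives centre near -12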
Sa growth 42C – S. aureus growth inhibition. S. aureus RN4220 growth, OD600, 20 h, 42 °C; stronger effect = lower value. relative growth, % (no concentration beside the values). 170,000 compounds, 0.53% hits;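 active = growth at 42 °C up to 50% and 20 or more points under that at 30 °C, or under 10% at both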;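 note: 300 nL library stock went into each well; scaled to the means of positive and negative controls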
GIV-Gai inh – blocks GIV peptide binding to rat Galpha-i3. percent of control (FP), % (test concentration not listed). 210,000 compounds, 0.42% hits. P08753. Galpha-i3/FITC-GIV peptide fluorescence polarization, 90 min; stronger effect = lower value; scaled: aluminum fluoride 0%, vehicle 100%;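 active = replicate mean at 85% of control or lower, very high polarization wells dropped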;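 note: wells of about 15 µL received 100 nL stock; the first replicate is given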
Target sequence (P08753 whole entry, looked up): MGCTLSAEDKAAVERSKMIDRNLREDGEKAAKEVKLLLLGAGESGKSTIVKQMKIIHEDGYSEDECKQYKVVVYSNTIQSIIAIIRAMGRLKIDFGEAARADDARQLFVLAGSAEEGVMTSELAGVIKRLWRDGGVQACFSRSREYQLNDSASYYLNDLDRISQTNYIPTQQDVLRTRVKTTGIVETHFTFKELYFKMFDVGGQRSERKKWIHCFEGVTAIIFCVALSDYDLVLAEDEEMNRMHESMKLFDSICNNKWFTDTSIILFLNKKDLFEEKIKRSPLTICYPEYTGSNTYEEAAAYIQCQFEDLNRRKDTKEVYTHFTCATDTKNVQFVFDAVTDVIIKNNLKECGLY
Sa growth 42C second temp – further read-out of Sa growth 42C, marked with its call; relative growth, %; measured here: growth at 30 °C;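 optical density after 20 h as mean of two plates; 100% = untreated growth and lower means inhibition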
Numbers without * were called inactive; nt = no result given; & = joins results of further samples.

SMILES | HCMV UL50-53 inh | Sa growth 42C | Sa growth 42C second temp | GIV-Gai inh
O=C(Nc1cccc(F)c1)c1ccc2snnc2c1 | -14.2 | 117.0 | 91.9 | 108.2
CCc1ccc(C2C(C(=O)Nc3ccccc3)=C(C)Nc3nc(SCC(=O)c4ccc(C)cc4)nn32)cc1 (stereo not given) | nt | 107.9 | 91.7 | 100.1
CCOC(=O)C1CCN(c2nnc(Cc3ccncc3)c3ccccc23)CC1 | 1.1 | nt | nt | 108.5
Cc1cccc(NC(=O)N2CCN(S(=O)(=O)c3cc4c(cc3Cl)NC(=O)C(C)O4)CC2)c1C (stereo not given) | -18.4 | nt | nt | 100.1
COc1cc(C(=O)Oc2ccc3c(c2)OCC3=O)cc(OC)c1OC | nt | 98.0 | 86.9 | 97.7
Cc1cccc(NC(=O)Cn2c(=O)oc3cc(S(=O)(=O)NCc4ccccc4)ccc32)c1C | 6.3 | 84.7 | 86.2 | 103.8
C=CCN1C(=O)NC(=O)/C(=C\c2cn(Cc3ccccc3)c3ccccc23)C1=O | nt | 94.6 | 98.9 | 21.4*
CCN(CC(=O)Nc1ccc(NC(C)=O)cc1)C(=O)C1CCCC1 | -17.9 | 67.8 | 86.2 | nt
COC(=O)c1cc(=O)n2c(nc3cc(C(F)(F)F)ccc32)s1 | -4.9 | 99.9 | 94.9 | 107.6
O=C(CSCCO)Nc1ccccc1 | -10.2 | 78.3 | 92.4 | 97.9
CCNC(=O)N(c1ccccc1)c1ccccc1 | -16.2 | 91.7 | 92.9 | 99.7
CCOc1ccc(CCNC(=O)Cn2ncc3c([nH]c4ccccc43)c2=O)cc1OCC | nt | 114.4 | 92.0 | 100.8
Cc1nn(-c2ccccc2)c2nc(C3CC3)cc(C(=O)Nc3cccc(F)c3)c12 | nt | 98.3 | 85.1 | 103.9
CN(C)CCn1c(=S)[nH]c2ccccc2c1=O | -4.8 | 94.6 | 92.8 | 107.4
CCN(CC)C(CNC(=O)c1cc(-c2ccc3c(c2)OCCO3)on1)c1ccc(C(C)C)cc1 (stereo not given) | -12.6 | nt | nt | 97.5
NC(=O)N/N=C1\CCc2ccccc21 | -19.1 | 97.7 | 93.7 | 104.2
Cc1nc2nc(CN)nn2c(C)c1CCC(=O)NC1CCCCC1 | -13.2 | nt | nt | 105.1
O=CNC(=O)c1ccccc1C(=O)O | nt | 92.9 | 78.0 | 99.9
Cc1cc(CNC(=O)NC2CCCCC2)c(C)n1-c1cccc(Cl)c1 | 34.1 | nt | nt | 108.4
Cn1ncc(CO)c1C(F)(F)F | -4.8 | 88.6 | 95.0 | 101.7
Cc1c(C(=O)OCc2ccc(F)cc2)nnn1-c1ccc(Br)cc1 | 9.0 | nt | nt | 95.8
C/C(=N\N1CCN(C2c3ccccc3-c3ccccc32)CC1)c1cccnc1 | -4.3 | 117.9 | 97.8 | nt
Cc1ccc(Nc2nc(N)nc(CN3CCN(C(=O)C4COc5ccccc5O4)CC3)n2)cc1 (stereo not given) | -24.3 | 99.0 | 88.7 | nt
CN1C(=O)Cc2cc(S(=O)(=O)N3CCCCC3)ccc21 | -15.9 | 95.4 | 89.6 | 102.1
Cc1ccc(Cl)cc1N1CCN(C(=O)CS(=O)(=O)Cc2nc(-c3ccccc3Cl)oc2C)CC1 | -16.7 | nt | nt | 106.7
CC1CCC(NC(=O)c2ccc3c(c2)N(Cc2cccc(Cl)c2)C(=O)c2ccccc2S3(=O)=O)CC1 (stereo not given) | nt | 99.3 | 102.5 | 97.6
CCN1CCN(CCCNC(=O)c2ccc3nc(Cc4ccc(OC)cc4)oc3c2)CC1 | nt | 92.5 | 92.3 | 103.5
COc1ccc(C(=O)N(CC2COc3ccccc3C2)C(C)C)cc1 (stereo not given) | -34.6 | nt | nt | 103.5
Cc1ccccc1OCC(=O)NC(C)C | 14.4 | 95.6 | 92.4 | 106.0
CC(C)CCNC(=O)C1(C)Cn2c(nc3ccccc32)C(=O)N1CCc1ccc(Cl)cc1 (stereo not given) | -8.6 | nt | nt | 105.0
Cc1ccc(S(=O)(=O)N2N=C3CCCCC3C2(O)C(F)(F)F)cc1 (stereo not given) | -12.7 | 102.2 | 89.8 | 101.4
CCOc1ccccc1NC(=O)Nc1cc2c(cc1Oc1ccccc1)n(C)c(=O)n2C | -19.7 | nt | nt | 106.5
CCOc1cc(CNc2ccc(N3CCOCC3)cc2)ccc1OCc1ccccc1 | nt | 89.4 | 94.2 | 103.6
N#CC(C#N)=C(c1ccccc1)c1ccccc1 | -51.5 | 131.0 | 105.2 | 103.7
COCCNC(=O)c1cnn(-c2ccc(C)cc2C)c1C1CCN(C(=O)OC(C)(C)C)CC1 | nt | 108.5 | 83.7 | 106.9
COc1ccc(NC(=O)C2CC(=O)N(C)C(=Nc3cccc(C(F)(F)F)c3)S2)cc1 (stereo not given) | -20.6 | nt | nt | 100.4
Cn1ccnc1SCC(=O)Nc1ccc(C#N)cc1 | -16.2 | 98.6 | 86.1 | nt
O=C(O)COc1ccc(Br)cc1CO | 6.0 | 95.4 | 98.8 | 99.6
COc1ccc(C2CC(=O)c3cc(-c4nc(-c5ccc(Cl)cc5)cs4)c(=O)[nH]c3C2)cc1OC (stereo not given) | -7.8 | 102.2 | 89.8 | 133.3
CCN1C(=O)C(=C2C=C(C)N(CCO)C(C)=C2)C(=O)N(CC)C1=S | -8.8 | 112.4 | 98.5 | nt
Cc1cccc(NC(=O)C23CCC(C)(C(=O)O2)C3(C)C)c1 (stereo not given) | -27.8 | 99.3 | 76.6 | nt
C=CCC1(CC=C)CCCCN1 | -1.4 | 106.5 | 91.8 | nt
COC(=O)c1ccc(C2C3=C(CC(c4ccc(O)c(OC)c4)CC3=O)Nc3onc(C)c32)cc1 (stereo not given) | -10.8 | nt | nt | 104.1
N#CC1(C#N)C2CCCCC23OC(=N)C1(C#N)C(Cc1ccccc1)O3 (stereo not given) | -16.4 | 98.9 | 77.0 | nt
Cc1ccc(C)c(N(C)C(=O)C2CCN(S(=O)(=O)c3cccc4nsnc34)CC2)c1 | -50.0 | 98.2 | 93.0 | 106.3
COc1ccc(N2CCN(S(=O)(=O)c3ccc(-n4[nH]c(=O)c5ccccc5c4=O)cc3)CC2)cc1 | -75.0 | 75.2 | 73.4 | 101.8
c1ccc(-c2cc(NC3CC3)n3nc(-c4cccnc4)nc3n2)cc1 | -8.2 | nt | nt | 105.4
Clc1ccc(OCCCN2CCN(c3cccc4[nH]ccc34)CC2)cc1 | 0.3 | 97.0 | 63.1 | 107.8
Cc1cccc(C(=O)n2nc(C)c(S(=O)(=O)N3CCOCC3)c2C)c1 | nt | 96.9 | 94.8 | 102.0
O=C(CCc1nc2ccccc2s1)OCc1ccccc1 | -19.6 | 98.4 | 90.6 | nt
Further records
SMILES | HCMV UL50-53 inh | Sa growth 42C | Sa growth 42C second temp | GIV-Gai inh
COc1ccc(NC(=O)CCS(=O)(=O)c2ccc3c(c2)CCN3C(C)=O)cc1 | -5.0 | 74.0 | 85.8 | 99.8
CCCN(C(=O)c1cc2cc3ccc(OC)cc3nc2s1)c1ccc(CC)cc1 | nt | 90.8 | 82.0 | 104.3
Cc1cc2c(cc1S(=O)(=O)N1CCCC(C(=O)N3CCC(C)CC3)C1)OCC(=O)N2 (stereo not given) | -10.1 | nt | nt | 99.1
CC(=O)NC12CC3CC(C1)CC(C(=O)OCC(=O)N1CCC(c4ccccc4)=N1)(C3)C2 | -1.4 | 102.9 | 97.8 | nt
CCCCn1c(C2CC(=O)N(c3ccc(OCC)cc3)C2)nc2ccccc21 (stereo not given) | -26.0 | 110.9 | 83.5 | 101.8
CCNc1cc(N2CCC3(CC2)OCCO3)c2noc3c2c1C(=O)c1ccccc1-3 | -121.0 | 97.9 | 78.6 | 240.2
CCc1ccc(-n2nc3ccc(NC(=O)c4cc(Cl)c(OC)c(Cl)c4)cc3n2)cc1 | -22.2 | 93.2 | 82.9 | 108.9
Cc1nnc(SC(C)C(=O)N(C)C2CCCCC2)n1N (stereo not given) | -21.6 | 89.5 | 86.4 | nt
CC1=C(C(=O)OC2CCCC2)C(c2coc3ccc(C)cc3c2=O)C2=C(CC(c3ccco3)CC2=O)N1 (stereo not given) | -3.1 | 94.3 | 90.7 | 105.2
Brc1ccc(-c2nnc3sc(CN4CCc5ccccc54)cn23)cc1 | -12.2 | 98.9 | 93.6 | 101.8

A draw from above in order of count of non-hydrogen atoms, rising.
SMILES | HCMV UL50-53 inh | Sa growth 42C | Sa growth 42C second temp | GIV-Gai inh
Cc1nnc(SC(C)C(=O)N(C)C2CCCCC2)n1N (stereo not given) | -21.6 | 89.5 | 86.4 | nt
O=C(CCc1nc2ccccc2s1)OCc1ccccc1 | -19.6 | 98.4 | 90.6 | nt
Cc1cccc(C(=O)n2nc(C)c(S(=O)(=O)N3CCOCC3)c2C)c1 | nt | 96.9 | 94.8 | 102.0
Clc1ccc(OCCCN2CCN(c3cccc4[nH]ccc34)CC2)cc1 | 0.3 | 97.0 | 63.1 | 107.8
CCCCn1c(C2CC(=O)N(c3ccc(OCC)cc3)C2)nc2ccccc21 (stereo not given) | -26.0 | 110.9 | 83.5 | 101.8
CCCN(C(=O)c1cc2cc3ccc(OC)cc3nc2s1)c1ccc(CC)cc1 | nt | 90.8 | 82.0 | 104.3
Cc1cc2c(cc1S(=O)(=O)N1CCCC(C(=O)N3CCC(C)CC3)C1)OCC(=O)N2 (stereo not given) | -10.1 | nt | nt | 99.1
CC(=O)NC12CC3CC(C1)CC(C(=O)OCC(=O)N1CCC(c4ccccc4)=N1)(C3)C2 | -1.4 | 102.9 | 97.8 | nt
CC1=C(C(=O)OC2CCCC2)C(c2coc3ccc(C)cc3c2=O)C2=C(CC(c3ccco3)CC2=O)N1 (stereo not given) | -3.1 | 94.3 | 90.7 | 105.2

Further compounds follow.
SMILES | HCMV UL50-53 inh | Sa growth 42C | Sa growth 42C second temp | GIV-Gai inh
CCN(CC)S(=O)(=O)c1ccc2c(c1)c(=O)c(C(=O)NCc1ccccc1)cn2C | -12.1 | 113.3 | 78.9 | 107.7
COc1ccc(C2c3[nH]c4ccc(OC)cc4c3CCN2C(=O)Nc2ccc(OC)cc2OC)cc1 (stereo not given) | -5.7 | nt | nt | 100.9
COc1ccc2c(c1)NC(c1ccccc1)c1cccn1-2 (stereo not given) | -16.3 | 69.2 | 62.6 | 97.5
COC(=O)c1sccc1S(=O)(=O)Nc1ccc(Br)cc1 | -3.5 | nt | nt | 104.1
Cc1cccc(C(=O)NCCC(=O)N2CCc3ccccc3C2)c1 | -11.9 | 94.1 | 96.4 | nt
Cc1nc2c(C)cccn2c(=O)c1Cc1nnc(SCc2cc(=O)c3cc(Cl)ccc3[nH]2)n1C | -4.7 | nt | nt | 107.9
Cc1cccc(CNC(=O)Cn2ccc3cc(S(=O)(=O)N4CCC(C)CC4)ccc32)c1 | nt | 94.3 | 97.0 | 102.5
CCOC(=O)N1CCC(NS(=O)(=O)c2ccc(C#N)cc2)CC1 | -3.4 | 98.9 | 93.9 | 100.5
O=C(Nc1cccc(-c2nn[nH]n2)c1)c1cccc(C(F)(F)F)c1 | 12.5 | 104.4 | 101.8 | 101.4
Cc1ccc2oc(=O)ccc2c1 | -39.6 | 92.2 | 84.9 | 107.1

Reformatted as tab-separated lines: entries from further up
Molecule	HCMV UL50-53 inh	Sa growth 42C	Sa growth 42C second temp	GIV-Gai inh
COc1ccc2c(c1)NC(c1ccccc1)c1cccn1-2 (stereo not given)	-16.3	69.2	62.6	97.5
COC(=O)c1sccc1S(=O)(=O)Nc1ccc(Br)cc1	-3.5	nt	nt	104.1

Continued.
SMILES | HCMV UL50-53 inh | Sa growth 42C | Sa growth 42C second temp | GIV-Gai inh
COc1ccc(Br)cc1C1SCCN1S(=O)(=O)c1ccc(Cl)c(Cl)c1 (stereo not given) | nt | 92.6 | 84.1 | 102.6
Cc1ccc2[nH]c(=O)c(-c3noc(CCC(=O)NCC4CCCO4)n3)cc2c1 (stereo not given) | -66.6 | nt | nt | 107.7
Cc1ccc(NC(=O)CC(NCC2CCCO2)C(=O)O)cc1 (stereo not given) | nt | 110.5 | 105.0 | 105.3
CC(=O)NC1C(=O)Nc2ccc(F)cc21 (stereo not given) | -3.0 | 102.7 | 86.4 | nt
COc1ccc2c(c1)C(C)=CC(C)(C)N2C(=O)Cn1cnc2c(cnn2-c2ccccc2)c1=O | 0.2 | 100.3 | 76.4 | 96.1
COc1ccc(C(=O)N(c2ccc(OC)cc2)S(=O)(=O)c2ccc(C)cc2)cc1 | -16.5 | 110.0 | 82.3 | nt
Cc1ccc(-n2nc(C)c3c(C(=O)NCCc4ccccc4)cc(C)nc32)cc1 | nt | 84.2 | 87.4 | 102.8
CCCC(=O)Nc1ccc(N2CCCCC2C)cc1 (stereo not given) | -6.6 | 103.3 | 104.5 | 104.3
Cc1c(C(=O)N(C)C2CCCCC2)sc2nc(-c3ccccc3)cn12 | -6.3&-27.4 | nt | nt | 99.1
O=C(CS(=O)(=O)c1cn(Cc2cccc(F)c2)c2ccccc12)NC1CCCCC1 | nt | 104.5 | 88.0 | 95.8
O=C1CC(c2ccccc2)CC2=C1C(c1cc(Br)ccc1F)Nc1ccccc1N2 (stereo not given) | -8.4 | nt | nt | 112.7
COc1cccc(CNC(=O)c2cc(-c3ccc(Cl)s3)nc3ccccc23)c1 | -13.4 | 94.6 | 89.2 | 106.6
C=CCn1c(C)nnc1SCCN1C(=O)c2ccccc2S1(=O)=O | 2.8 | 91.3 | 93.1 | nt
Cc1ccccc1NC(=O)c1cnn2c(C(F)(F)F)cc(-c3ccco3)nc12 | nt | 107.6 | 85.5 | 96.8
Cc1ccc(S(=O)(=O)NC(CC(=O)NC2CCCC2)c2ccco2)cc1 (stereo not given) | -9.9 | 99.9 | 104.6 | 110.0

Random draw from the library; 0.83% or so of the library scored in one or more.
